Screening data deposited in PubChem BioAssay by SRMLSC.
H5N1 antiviral – MDCK cell protection from H5N1 avian flu; inhibition, % at 50 µM; 96,000 compounds, 0.07% hits; cytopathic effect, luminescence, 72 h; hits give high values; no value below 0 was filed and about half of the inactive calls have no number; reference of the scale not given here; in the data active means inhibition above about 25%
* hit, by the source's call; i = inactive. An excerpt (hit frequency here may not be typical).

SMILES	H5N1 antiviral
COc1ccc(NC(=O)N2CCC(NC(=O)c3ccco3)CC2)cc1	i
CC1CCC/C=C/C2CC(O)CC2C(O)/C=C/C(=O)O1 (stereo unspecified)	i
CCC(=O)N1CCc2cc(Br)cc(S(=O)(=O)C3(C(=O)OC)CC3)c21	0.5
COc1ccc(NC(=O)C(CCS(C)(=O)=O)N2C(=O)c3ccccc3C2=O)cc1 (stereo unspecified)	i
Cc1ccc(-n2cc3c(=O)n(C)c(=O)n(C)c3c2)cc1C	i
COC(=O)c1ccccc1NC(=O)CSc1nnc(Cc2ccc(Cl)cc2)o1	i
COC(=O)c1ccc(-n2nnnc2SCC(=O)N2CCCCC2)cc1	1.1
CN1CCN(c2ccc(Cl)cc2NC(=O)c2ccc(S(=O)(=O)N(C)C)cc2)CC1	i
CCOc1ccc(-c2c[n+](=O)c3c(n2[O-])CCCC3)c(OCC)c1	i
O=C(Nc1ccccc1)C1=C(O)CC(c2ccoc2)CC1=Nc1ccccc1 (stereo unspecified)	i
CC1CN(CC(O)COc2ccc(C(C)C)cc2)CC(C)O1 (stereo unspecified)	i
Cc1nc(N2CCN(C(c3ccccc3)c3ccccc3)CC2)[nH]c(=O)c1C	i
CCc1ccc2nc3nc(C)cc(C)c3c(N)c2c1	i
CCOc1ccc2nc(NCCO)[nH]c2c1	i
CC(=O)N(CC1CCCO1)c1nnc(-c2ccccn2)s1 (stereo unspecified)	1.0
COc1cc(C(=O)N2CCN(c3ncnc4sc(C)c(C)c34)CC2)cc(OC)c1OC	0.3
O=C(OCCNC(=O)c1ccc2ccccc2n1)c1ccc(F)cc1	i
O=C(CCCSc1nnnn1-c1cccc2ccccc12)c1ccc(F)cc1	1.8
CCC(C)C(NC(=O)C1CCC(C)CC1)C(=O)NCc1ccccn1 (stereo unspecified)	0.1
Nc1nc(CSc2ncn(-c3ccccc3)n2)cs1	2.8
CCCCOC(=O)c1ccc(NC(=S)NC(=O)c2c(Cl)cnn2C)cc1	i
CN=C(C)c1c(O)c2ccccc2oc1=O	0.6
O=C(NCC1CCCO1)C1CCN(C(=O)c2ccc(Cl)cc2)CC1 (stereo unspecified)	2.4
CCOC(=O)c1[nH]c2ccccc2c1NC(=O)C1CCCCC1	i
CCCN(c1ccc(OCC)cc1)S(=O)(=O)c1ccc2c(c1)CCN2C(=O)CCC(=O)O	0.7
CNC(=O)C1C2C=CC3(O2)C1C(=O)N(CCOC)C3C(=O)NCc1ccc(OC)cc1 (stereo unspecified)	i
CCCCSc1nnc(-c2cc3c(C(F)(F)F)nn(C)c3s2)n1C	i
c1csc(C2=Nn3c(nnc3-c3ccncc3)SC2)c1	17
C=C(C)CSC1=C(C#N)C(c2ccccc2Cl)CC(=O)N1 (stereo unspecified)	i
Cc1cc(C)n(-c2ccc(C(=O)OCc3nnc(-c4ccccc4)o3)cc2)n1	0.6
COc1ccc(Nc2cc(C)nc(-n3nc(C)cc3C)n2)cc1	1.4
O=C(OCc1csc(-c2ccccc2)n1)c1cccs1	i
CCOC(=O)CC(=O)CSc1nc2c(cc1C#N)CCC2	i
Cc1nnc(-n2cnc3ccccc32)c2ccccc12	2.2
COc1cccc(N(C(C)=O)c2nc(C)cc(C)c2C#N)c1	i
COC(=O)c1cc2ccc(OC)c(OC)c2c(=O)s1	1.3
O=C(C/C=N/OCc1c(Cl)cccc1Cl)c1ccccc1	0.4
COc1ccc(-c2ccc(-c3noc(-c4cccc(OC)c4)n3)c(OC)n2)cc1	i
NC(=O)NC(=O)CSc1cccc(C(F)(F)F)c1	i
CCOc1ccc(Cn2nnc(C(=O)NCc3ccccc3)c2N)cc1	i
CCOC(=O)c1csc(NC(=O)CSc2nnnn2-c2ccc(OC)c(OC)c2)n1	i
CCCCC(=O)Nc1ccc(NC(=O)c2ccc3c(c2)OCO3)cc1OC	i
CN(CC(=O)NCc1ccccc1)S(=O)(=O)c1cnc[nH]1	i
CCc1ccc(OCC(O)CN2CCN(c3ccccc3)CC2)cc1 (stereo unspecified)	1.6
COc1ccc(N2CCN(C(=O)c3c(-c4ccccc4)noc3C)CC2)cc1	3.3
O=C(CSc1nnc(C2CCCCC2)n1Cc1ccccc1)NCc1ccco1	i
Cc1nn(C(C)C(=O)NCC2CCCO2)c(=O)c2cc3occc3n12 (stereo unspecified)	0.2
COC(=O)CN1C(=O)C(C)(C)Oc2ccc(C(=O)NC3CC3)cc21	0.1
CC(C)(C)C(=O)Nc1ncc(C(F)(F)F)cc1Cl	0.5
C/C=C(\C)c1nnc(NC(=O)OCC)s1	0.0

The list goes on.
SMILES	H5N1 antiviral
CCOC(=O)C1CCCN(S(=O)(=O)c2ccc(OC)cc2)C1 (stereo unspecified)	1.4
CCc1ccc(CCC(=O)Nc2ccc(C)c(C)c2)o1	i
COc1cc(C(=O)Nc2nncs2)cc(OC)c1OC	0.2
O=c1[nH]cnc2c([N+](=O)[O-])cccc12	i
CSc1nc(SCC(=O)NCc2ccco2)c2c3c(sc2n1)COC(C)(C)C3	i
CCn1cc(/C=N\NC(=O)c2csc3ccccc23)c(C)n1	0.5
c1csc(-n2nc3ccccc3n2)c1	0.7
O=C1CC(c2ccc(S(=O)(=O)Nc3cc(C(F)(F)F)cc(C(F)(F)F)c3)cc2)CN1 (stereo unspecified)	0.5
Cn1c(=O)oc2cc(S(=O)(=O)NCCC(=O)NCCc3ccccc3)ccc21	1.1
O=C(Nc1cccc(Cl)c1)N1CCCC1	i
CCCc1nc2ccccc2c(C(=O)OCC(=O)NCc2ccco2)c1CC	0.6
CCOC(=O)N1CCC(NS(=O)(=O)c2cc3c(cc2Cl)NC(=O)CO3)CC1	i
CCC(=O)c1ccc(OCC(=O)Nc2nn3cnnc3s2)cc1	i
COC(=O)c1ccc(NC(=O)CN2C(=O)CCC2=O)cc1	i
CCCCCCC(=O)Nc1nc(C)c(-c2csc(Nc3cc(Cl)ccc3C)n2)s1	i
CCOC(=O)c1c(-n2c(C)cc(C=O)c2C)sc2c1CCCC2	i
Cc1ccc(-n2ncc3c(=O)[nH]c(SC(C)C)nc32)cc1	4.8
CCCCN(CCCC)S(=O)(=O)c1ccc(C(=O)Nc2nnc(CSC)o2)cc1	1.1
Cc1cccc2nc(C(F)(F)F)nc(=O)n12	0.2
CN1CCc2c(sc3c2c(=O)n(-c2ccc(Cl)cc2)c2nncn32)C1	1.0
CCOC(=O)NC(C(F)(F)F)(C(F)(F)F)P(=O)(c1ccccc1)c1ccccc1	i
COc1ccc2nc(NC(=O)CSc3nc4cccnc4n3C)sc2c1	0.4
COc1ccc(C(=O)Oc2c(CN3CCOCC3)cc(Cl)c3cccnc23)cc1	i
COc1ccc(S(=O)(=O)N(C)CC(=O)Nc2ccc3c(c2)OCCO3)cc1OC	1.2
CCc1nc(N2CCN(C(=O)c3ccco3)CC2)c2c3c(sc2n1)CCCC3	4.0
Cc1ccc(O)c(-c2cc(C(F)(F)C(F)F)[nH]n2)c1	i
CN(C)S(=O)(=O)c1ccc(C(=O)N(c2ccccn2)c2ccccn2)cc1	i
Cc1cc2nnc(SCC(=O)N3C(C)CCCC3C)n2c(N)n1 (stereo unspecified)	0.8
O=C(COc1ccc(Cl)cc1)OCC(=O)N1CCCC1	0.2
CCCn1nc(Oc2nc(NCC)nc(NC(C)C)n2)ccc1=O	i

Fetched by structure from the entries so far:
SMILES	H5N1 antiviral
CN(C)S(=O)(=O)c1ccc(C(=O)N(c2ccccn2)c2ccccn2)cc1	i
COc1ccc2nc(NC(=O)CSc3nc4cccnc4n3C)sc2c1	0.4

Later entries.
SMILES	H5N1 antiviral
O=C(NC1CCCC1)C1CCC(=O)N1CCc1ccccc1 (stereo unspecified)	1.2
COc1cc(NC(=O)Cn2nc(C(F)(F)F)c3c2CCCC3)cc(OC)c1OC	i
COc1ccc(NC(=O)Cn2c(=O)n(Cc3ccco3)c(=O)c3ccccc32)cc1	i
CC(C)(C)c1ccc(C(=O)N2CCN(c3nc4ccccc4o3)CC2)cc1	0.3
COc1ccc(NC(=O)CSc2nc3c(c(=O)n2-c2ccc(F)cc2)SCC3)cc1	i
Cc1cnc(-c2nnc(N(C)C(=O)c3cccnc3)s2)cn1	0.1
CCOC(=O)CSc1nnc(CSc2nc3ccccc3s2)n1C	i
c1ccc(-n2c(Sc3cnccn3)nnc2-c2cccs2)cc1	3.3
COc1ccc(C2C(C(=O)NCCN(C)C)c3cc(OC)c(OC)cc3C(=O)N2C)cc1OC (stereo unspecified)	i
COC(=O)C1=CN(C)C=C(C(=O)OC)C1c1ccc(Cl)cc1Cl	i
CC1=C(C(=O)N(C)C)C(c2cccc(Cl)c2)NC(=O)N1 (stereo unspecified)	1.5
CCOC(=O)c1c(N)n[nH]c1-c1ccc(OC)cc1	6.2
O=C1CSc2ccc(C(=O)N3CCN(c4ccccn4)CC3)cc2N1	2.6
Cc1ccc(/C=N\Nc2cn[nH]c(=O)c2Cl)cc1	i
COc1ccc(-n2nnnc2-c2cn(C)nc2C(F)(F)F)cc1	2.8
COc1cccc(N2C(=O)C3CCCN3C2c2ccc(Cl)cc2)c1 (stereo unspecified)	0.0
CCCCN(Cc1ccco1)C(=O)c1cc2c(=O)[nH]c3ccc(C)cc3c2s1	15
Cc1c(C(=O)O)c(-c2ccccc2)nn1-c1ccccc1	1.8
CCCC(=O)Nc1ccccc1-c1nnn(CC(=O)Nc2ccc(OC)cc2)n1	i
CCSc1nnc(-c2sc3nnc(-c4ccccc4)c(-c4ccccc4)c3c2N)o1	1.8

Compounds above with an aryl thioether with sulfur outside any ring (17):
SMILES	H5N1 antiviral
COC(=O)c1ccccc1NC(=O)CSc1nnc(Cc2ccc(Cl)cc2)o1	i
COC(=O)c1ccc(-n2nnnc2SCC(=O)N2CCCCC2)cc1	1.1
O=C(CCCSc1nnnn1-c1cccc2ccccc12)c1ccc(F)cc1	1.8
Nc1nc(CSc2ncn(-c3ccccc3)n2)cs1	2.8
CCCCSc1nnc(-c2cc3c(C(F)(F)F)nn(C)c3s2)n1C	i
CCOC(=O)CC(=O)CSc1nc2c(cc1C#N)CCC2	i
NC(=O)NC(=O)CSc1cccc(C(F)(F)F)c1	i
CCOC(=O)c1csc(NC(=O)CSc2nnnn2-c2ccc(OC)c(OC)c2)n1	i
O=C(CSc1nnc(C2CCCCC2)n1Cc1ccccc1)NCc1ccco1	i
CSc1nc(SCC(=O)NCc2ccco2)c2c3c(sc2n1)COC(C)(C)C3	i
Cc1ccc(-n2ncc3c(=O)[nH]c(SC(C)C)nc32)cc1	4.8
COc1ccc2nc(NC(=O)CSc3nc4cccnc4n3C)sc2c1	0.4
Cc1cc2nnc(SCC(=O)N3C(C)CCCC3C)n2c(N)n1 (stereo unspecified)	0.8
COc1ccc(NC(=O)CSc2nc3c(c(=O)n2-c2ccc(F)cc2)SCC3)cc1	i
CCOC(=O)CSc1nnc(CSc2nc3ccccc3s2)n1C	i
c1ccc(-n2c(Sc3cnccn3)nnc2-c2cccs2)cc1	3.3
CCSc1nnc(-c2sc3nnc(-c4ccccc4)c(-c4ccccc4)c3c2N)o1	1.8

The list goes on.
SMILES	H5N1 antiviral
CCOC(=O)c1[nH]c(C)c(C(=O)OCC(=O)N2CCCCC2C)c1C (stereo unspecified)	i
Cc1cccn2cc(CCNS(=O)(=O)c3ccc4c(c3)OCCO4)nc12	1.7
CC(C)C(=O)NCCc1nc2ccccc2n1CCCOc1ccc(Cl)cc1	0.4
O=C(COC(=O)c1ccco1)Nc1ccc2c(c1)OCCO2	0.1
Cc1cc(NC(=O)CSc2nnc(-c3ccncc3)n2N)ccc1Br	i
O=C(Nc1ccc(N2CCN(C(=O)c3ccc(Cl)cc3)CC2)cc1)c1ccc(Br)o1	i
COc1cccc(NC(=O)CSc2nncn2N)c1	i
CN1CCN(C(=O)c2cc3nc(-c4ccc(Cl)cc4)cc(C(F)(F)F)n3n2)CC1	0.9
CC12CCC(C(=O)Nc3ccc4c(c3)OCCO4)(OC1=O)C2(C)C (stereo unspecified)	i
COc1ccc(C2NC(=O)NC(c3ccccc3)=C2c2nc3ccccc3s2)cc1 (stereo unspecified)	i
C/C(NC(=O)c1ccccc1)=C1/C(=O)CC2C1C2(C)C (stereo unspecified)	i
FC(F)(F)c1nc2ccccc2nc1N/N=C\c1ccccc1	i
CCN(Cc1ccccc1)Cc1c(C)[nH]c2c(C)c(C)ccc2c1=O	i
O=C1c2ccccc2NC(c2ccc(F)cc2)N1Cc1ccco1 (stereo unspecified)	i
CN1C=CC=C/C1=C(\C#N)c1nc2ccccc2[nH]1	0.2
COCCN(C(=O)Cn1nnc2ccccc21)C(C(=O)NC1CCCC1)c1cccc(OC)c1OC (stereo unspecified)	i
CCOc1cc2[nH]c(=O)n(CCC(=O)NCc3ccc(OC)cc3)c(=O)c2cc1OCC	1.8
CCc1ccc(C2CC(c3ccc(Cl)cc3)=NNC2=O)cc1 (stereo unspecified)	i
COC(=O)CS(=O)(=O)c1cc(Br)cc2c1N(C(C)=O)CC2	i
COc1ccc(C)c2sc(=NC(=O)c3ccccc3)n(C)c12	1.3
COc1ccc(-n2cnc3c(cnn3CCC#N)c2=N)cc1	0.8
CC12CN3CC(c4ccccc4)(CN(C1)C31CCCCC1)C2=O	i
CCOc1ccc(S(=O)(=O)NCCSc2ccccc2)cc1	0.9
FC(F)(F)/C(=N\P(=S)(N1CCOCC1)N1CCOCC1)N1CCOCC1	i
Cc1c(NC(=O)Nc2ccc(Cl)c(Cl)c2)c(=O)n(-c2ccccc2)n1C	i
COCCNC(=O)c1onc(CCl)c1C(=O)OC	i
Cc1cccc(NC(=O)COc2ccc(Br)cc2)n1	i
Cc1ccccc1C(=O)Nc1ccccc1	i
CCOc1ccccc1C(=O)Nn1c(C2CCC2)nc2ccccc2c1=O	i
FC(F)(F)c1cnc(N2CCC(=NOCc3ccc(Cl)cc3)CC2)c(Cl)c1	1.1
COc1ccccc1NC(=O)C(NC(=O)OC(C)(C)C)C(C)OCc1ccccc1 (stereo unspecified)	0.6
O=C(CNCCO)N1CCc2ccccc21	i
COc1cc(/C=C(/C#N)c2nc3ccccc3[nH]2)ccc1OCC(=O)Nc1ccccc1C	i
CS(=O)(=O)Nc1ccc(S(=O)(=O)Nc2nccs2)cc1	0.3
O=C(NC(Cc1ccccc1)c1nc2ccccc2[nH]1)C1CC(=O)N(c2ccc3c(c2)OCCO3)C1 (stereo unspecified)	1.2
CN(CC(=O)Nc1ccc(S(N)(=O)=O)cc1)c1ccccc1	0.1
O=C(c1ccccc1)c1ccc2nc[nH]c2c1	0.3
